# RanGTP-Impb inh: disruptors of Ran-importin-beta complex formation – biochemical, FRET, CFP-Ran, YFP-importin-beta, homogeneous, primary screen; cell-free CFP-Ran/YFP-importin-beta FRET ratio; inhibition, % (concentration not given with the values); hit rate 1.1% among 300,000; AID 2216;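 active = most replicates above 15%; inconclusive = exactly half above 15%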;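 also: 0% = DMSO wells and 100% = Ran loaded with GDP instead of GTP; wells of about 40 µL received 100 nL stock; the first replicate is given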
# Bfl-1 A1 inh: inhibitors of the anti-apoptotic protein A1, read as caspase activation; hit rate 0.066% among 330,000; caspase activation, % (concentration not given with the values); MEF A1-2A-BIM cells, Caspase-Glo 3/7 luminescence, 3 h; percent of clofoctol response, vehicle zero;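 active = over half of replicate activation scores above 10%, or exactly half above 10 with the replicate mean above 10; inconclusive = replicate mean below 10 yet half the replicates above 10; inactive = over half of replicates below 10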;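 also: wells of about 30 µL received 50 nL stock; many hits fall short of the cut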
# Beta apoptosis: blocks beta cell apoptosis | INS-1E cytokine-induced death, ATP luminescence, 48 h; percent of positive-control rescue, neutral wells zero | hit rate 0.8% among 300,000 | AID 435005 | protection from apoptosis, % (concentration not given with the values);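 active = all replicates at 75% or more, or half of them and the mean; inconclusive = half reach 75% but not the mean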;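 also: 0% = cytokine-treated negative control wells and 100% = positive control rescue; higher means more ATP so stronger rescue from cytokine killing; wells of about 40 µL received 100 nL stock; the first replicate is given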
# B2AR ag: human beta-2 adrenergic receptor agonism by FAP | P07550 | Am2.2-beta2AR cells, FAP receptor internalization, flow cytometry; reference of the scale not given here | hit rate 0.43% among 340,000 | AID 504454 | response, % (no concentration beside the values);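 active = response above a set limit, near 3 SD of response in nonfluorescent compounds, cut at about 42% in these data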;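 also: stock transfer was 100 nL into about 11 µL; a reference agonist was the positive control; negative values mostly stem from fluorescent compounds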
# UCH37 inh: human UCH37 deubiquitinating enzyme inhibition | Q9Y5K5 | inhibition, % (concentration not given with the values) | purified proteasome/UCH37, Ub-AMC cleavage fluorescence | hit rate 0.33% among 330,000 | AID 588478;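 active = mean of two replicates above 20%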;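 also: 0% = compound-free wells with enzyme and 100% = wells lacking proteasome; stock transfer was 100 nL into about 20 µL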
#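 Signal – fluorescence, ex 355 nm, em 460 nm · System – Proteasome-bound UCH37 · Input – 0.15 nM proteasome as dispensed · Timing – 30 min preincubation with enzyme, 25 min cleavage at room temperature · Read-out basis – percent inhibition of cleavage signal versus uninhibited and no-proteasome wells · Medium – Tris-HCl pH 7.4 with ATP-MgCl2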
# T cruzi inh: blocks replication of Trypanosoma cruzi; T. cruzi beta-gal in NIH3T3, luminescence, 90 h; inhibition, % (no concentration beside the values); hit rate 1.4% among 300,000;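 active = mean inhibition across valid replicates above about 55%, limit read from the data; inconclusive = mean below that limit but half or more replicates reach it; inactive = mean below it, under half of replicates reach it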;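 also: signal also drops with host cell toxicity which is not excluded here; 0% = plate median of DMSO wells and 100% = zero luminescence signal; higher percent means less beta-gal luminescence so fewer parasites; stock transfer was 50 nL into about 50 µL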
# Calb FLC: C. albicans growth modulation with fluconazole; C. albicans CaCi-2 (fluconazole-resistant clinical isolate) + fluconazole, Alamar Blue growth, 48 h; growth inhibition, % (concentration not given with the values); hit rate 0.57% among 300,000;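 active = most replicates above 75%; inconclusive = exactly half above 75%; inactive = most below 75%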;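 also: all wells also contain fluconazole at 8 µg/ml as a sub-toxic cotreatment; 0% = median of DMSO wells and 100% = median of geldanamycin control wells; wells of about 8 µL received 7.5 nL stock; the first replicate is given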
# LANA-H2B inh: blocks KSHV LANA binding to histone H2A/H2B | Q9QR71 | cell-free LANA-H2A/H2B peptide, fluorescence polarization | inhibition, % (concentration not given with the values) | hit rate 0.6% among 320,000 | AID 2629; in the data active = inhibition mostly above about 10%, no sharp cut-off; inactive = mostly below about 6.7%;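 also: stock transfer was 7.5 nL into about 10 µL; 0% = median of vehicle wells and 100% = median of positive control wells; one replicate is shown; the record names a cut of 25% in any replicate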
# Target sequence (Q9QR71 whole entry, looked up): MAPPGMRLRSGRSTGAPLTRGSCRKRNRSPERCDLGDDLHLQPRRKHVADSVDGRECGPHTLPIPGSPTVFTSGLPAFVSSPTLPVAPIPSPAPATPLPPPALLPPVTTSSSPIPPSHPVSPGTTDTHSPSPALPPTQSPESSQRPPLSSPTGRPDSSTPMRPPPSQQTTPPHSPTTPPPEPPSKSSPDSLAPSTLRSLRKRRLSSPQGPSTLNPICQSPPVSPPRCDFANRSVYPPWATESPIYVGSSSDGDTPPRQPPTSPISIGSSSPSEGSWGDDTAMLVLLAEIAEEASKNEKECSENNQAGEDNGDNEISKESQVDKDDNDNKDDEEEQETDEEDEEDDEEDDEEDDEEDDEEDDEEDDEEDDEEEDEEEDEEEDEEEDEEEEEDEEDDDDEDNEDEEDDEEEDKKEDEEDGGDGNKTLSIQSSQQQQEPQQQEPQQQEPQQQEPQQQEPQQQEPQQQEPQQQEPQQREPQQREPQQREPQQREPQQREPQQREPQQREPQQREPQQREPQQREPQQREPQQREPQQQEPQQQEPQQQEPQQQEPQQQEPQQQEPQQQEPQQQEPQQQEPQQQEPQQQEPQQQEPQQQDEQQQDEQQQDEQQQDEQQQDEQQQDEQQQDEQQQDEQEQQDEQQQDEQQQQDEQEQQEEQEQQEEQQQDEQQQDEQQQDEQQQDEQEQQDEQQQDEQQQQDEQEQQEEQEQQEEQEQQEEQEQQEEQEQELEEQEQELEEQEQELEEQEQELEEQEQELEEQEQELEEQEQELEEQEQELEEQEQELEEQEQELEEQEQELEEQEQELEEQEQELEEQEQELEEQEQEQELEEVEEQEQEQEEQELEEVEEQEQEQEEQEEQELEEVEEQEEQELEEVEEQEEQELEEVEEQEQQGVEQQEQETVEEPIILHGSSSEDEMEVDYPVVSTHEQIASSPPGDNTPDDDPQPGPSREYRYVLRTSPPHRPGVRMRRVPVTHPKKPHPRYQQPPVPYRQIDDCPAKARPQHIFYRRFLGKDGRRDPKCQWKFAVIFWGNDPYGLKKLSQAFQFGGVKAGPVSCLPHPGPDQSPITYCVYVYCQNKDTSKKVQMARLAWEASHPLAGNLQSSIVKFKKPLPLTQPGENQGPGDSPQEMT
# Starred values were filed as active, the others as inactive; ? = inconclusive; / = no result given.
mol,RanGTP-Impb inh,Bfl-1 A1 inh,Beta apoptosis,B2AR ag,UCH37 inh,T cruzi inh,Calb FLC,LANA-H2B inh
Cn1c(SCC(=O)NCc2ccco2)nnc1C1CCCC1,-1.1,-0.2,/,0,3.8,-6,-2,2.1
COc1ccc(C2=CC3=C(Br)C(=O)C(C)(OC(=O)C4CCCC4)C(=O)C3=CO2)cc1 (configuration not stated),-5.0,0.1,-6,21,1.7,-6,11,6.9
O=C(Nc1ccc(F)cc1)c1cnc(-c2ccccc2)nc1-c1ccccc1,7.6,0.7,15,-9,5.0,19,6,1.6
CCN(CC(=O)Nc1ccc(NC(C)=O)cc1)C(=O)Cc1coc2cc(C)c(C)cc12,-2.1,-0.5,2,-5,4.8,2,2,-1.2
CC(C)(C)c1ccc(OCCC(=O)NCC(c2cccs2)N2CCOCC2)cc1 (configuration not stated),-0.2,0.2,8,4,1.8,-1,-15,-0.4
c1ccc(CNc2nnnn2-c2ccccc2)cc1,2.0,-0.9,-2,1,0.0,-8,-30,5.3
COC(=O)c1ccccc1NC(=O)CC#N,3.0,-0.3,-2,2,2.1,-19,3,-4.4
COc1ccc(-c2c([C@H]3[C@@H]4C=CCC[C@@]4(C)C(=O)N3Cc3ccccc3)ccc3ccccc23)cc1OC,?,-0.9,14,5,1.8,30,5,0.0
O=C(N/N=C/C(Cl)=C/c1ccccc1)c1cnccn1,-1.1,-1.7,-10,-1,/,-29,7,3.7
Cc1oc(-c2ccc(Cl)cc2)nc1CN1CCCC(C(=O)NCCCN2CCCC2=O)C1 (configuration not stated),/,-0.2,2,-8,1.9,/,/,-1.4
C=CCNS(=O)(=O)c1ccc2c(c1)n(C)c(=O)n2C,-0.4,0.6,-3,-6,3.6,-4,1,-2.1
COc1cc2c(cc1OC)C(c1ccc(Br)cc1)CC(=O)N2 (configuration not stated),0.7,1.3,-1,-9,4.1,26,-6,0.8
O=C(c1ccc([N+](=O)[O-])cc1)N1CCCC1,7.9,-0.4,-3,-2,2.7,6,-3,-3.4
Cc1ccc2nc3c(cc(C(=O)NCCc4ccccc4)c(=N)n3CCCN3CCOCC3)c(=O)n2c1,168*,-0.1,13,13,-436,27,-31,-11
CCn1ccc(-c2ccccc2)c(C#N)c1=O,3.7,-0.6,-4,-4,-35,-9,9,-2.5
CC(=O)Nc1ccc2nc(CN3CCN(CC(C)C)C(CCO)C3)ccc2c1 (configuration not stated),-1.4,1.7,-8,-2,-13,-1,-2,0.0
NC(=O)C(CCC(=O)c1ccc(Br)cc1)S(=O)(=O)c1ccccc1 (configuration not stated),-2.7,-0.1,-7,-7,5.5,5,0,-1.0
CCC(NS(=O)(=O)c1ccc(OC)cc1)C(=O)NCCc1ccccc1 (configuration not stated),-1.6,1.0,2,1,3.7,0,2,-4.0
O=C(c1ccc2c(c1)OCO2)N1CCN(S(=O)(=O)N2CCCCC2)CC1,-0.7,0.2,/,8,1.2,19,-5,-2.6
Cc1cccc(NS(=O)(=O)c2cc(C(=O)OCC(=O)Nc3cc(C)on3)ccc2C)c1,1.0,-2.2,-4,5,5.8,4,0,-6.5
CC(C)CCNC(=O)c1ccc(OC2CCN(S(=O)(=O)N(C)C)CC2)cc1,-3.6,1.5,1,-1,-1.1,4,-4,0.9
CCOc1ccc(Br)cc1S(=O)(=O)Nc1ccc(C(=O)OCC(=O)Nc2ccc(C#N)cc2)cc1,-1.0,-0.1,3,10,1.6,6,-2,-4.1
COc1ccccc1OCC(=O)Nc1sc2c(c1C(N)=O)CCC2,/,0.3,2,-8,-14,/,/,2.7
CC(C)(C)C1CCC(OC(=O)C[N+]2(C)CCCCC2)CC1 (configuration not stated),7.0,-0.7,3,14,7.6,-17,79*,-4.6
COc1cc(NC(=O)c2cnn3c(C(F)F)cc(C4CC4)nc23)c(OC)cc1Cl,0.8,0.1,0,-1,2.4,4,4,5.5
Cc1cc(C)cc(N2C(=O)CC(n3ccnc3)C2=O)c1 (configuration not stated),2.2,0.0,3,1,-0.7,-13,1,1.9
O=C(O)c1ccc(Nc2nc(-c3cccnc3)cs2)cc1O,0.2,-6.4,-1,2,6.6,0,0,-0.6
COC(=O)c1cc(C(=O)OCC(=O)NC2CCS(=O)(=O)C2)cc([N+](=O)[O-])c1 (configuration not stated),6.5,0.6,-7,-1,-1.1,-18,-4,-0.1
CN(C)CCOC(=O)CC12CC3CC(C1)CC(CC(=O)OCCN(C)C)(C3)C2,1.6,-0.1,4,1,3.6,-15,-10,2.5
Cc1nc(-c2ccc(O)c(O)c2)cs1,0.1,-0.3,-2,8,0.3,-12,-16,1.2
CCCCCC1CC(CC(=O)O)C(=O)O1 (configuration not stated),-3.7,-0.1,0,-6,5.1,-4,4,-12
CCCOc1ccc(-c2c(C(=O)N/N=C/c3ccccc3OCC)nnn2-c2nonc2N)cc1,-3.0,-0.8,-3,2,/,9,?,-0.1
O=C(N/N=C/c1cccc2ccccc12)c1cc(C2CC2)[nH]n1,-1.2,2.7,-6,11,/,-15,-1,1.7
O=c1c([N+](=O)[O-])c(N2CCOCC2)c2ccccc2n1Cc1ccccc1,?,-0.1,/,-1,6.2,24,?,-1.9
O=C(O)CC1SC(=Nc2cccc(C(F)(F)F)c2)NC1=O (configuration not stated),-1.1,-0.1,1,7,0.5,-6,-12,-2.2
N#C/C(=C\c1ccc(-c2ccccc2C(=O)O)o1)c1nc2ccccc2[nH]1,-29,-0.3,-2,7,11,-5,3,-3.2
CN(C(=S)Nc1cccnc1)c1ccc(O)cc1,0.4,0.3,-1,2,1.7,-9,4,-7.1
CC(=O)C1=C(C)OC(N)=C(C#N)C1c1ccncc1 (configuration not stated),6.3,0.3,-3,3,1.0,-11,14,2.8
Cn1ccsc1=NC(=O)c1cccc(C#N)c1,0.3,-1.6,3,-10,8.0,-3,8,3.1
COC(=O)c1nonc1NCn1nnc2ccccc21,-2.4,1.2,5,4,3.2,5,-2,-5.1
N#CC1=C(N)N(c2ccccc2)C2=C(C(=O)CCC2)C1c1ccsc1 (configuration not stated),2.5,1.0,-3,1,3.7,9,-7,3.4
O=C(CSc1nc2c(cnn2-c2ccccc2)c(=O)[nH]1)NC1CCS(=O)(=O)C1 (configuration not stated),6.1,0.2,-5,-7,2.4,-6,-2,0.5
Cc1c(C(=O)OCC(=O)N2CC(C)OC(C)C2)oc2ccc(Br)cc12 (configuration not stated),-2.9,-0.1,-6,-9,3.8,6,21,-1.6
CCc1nc(Nc2ccccc2OC)c2oc3ccccc3c2n1,-1.2,-0.7,8,2,-204,14,0,-0.8
COc1ccc(C)cc1N(CC(=O)Nc1cccnc1)S(=O)(=O)c1ccc(C)cc1,-3.2,1.4,3,2,-0.2,12,9,-2.0
Cc1nn(-c2cccc(C(F)(F)F)c2)c(=O)c2ccccc12,4.5,0.3,2,-12,-0.6,-3,10,1.3
Nc1c2c(nc3sc4c(c13)CCCC4)CCCCCC2,-8.5,-0.6,49,6,4.9,39,-6,-0.9
O=S(=O)(Nc1cccc2ccccc12)c1cccs1,2.2,1.1,-5,4,-4.3,-13,66,12
C=CCn1c(SCc2cc([N+](=O)[O-])cc3c2OCOC3)nc2cc(C(=O)O)ccc2c1=O,0.5,-0.5,-10,1,9.2,14,8,-6.1
Cc1ccc(CC(=O)Nc2ccncc2)cc1,-3.6,0.7,33,1,4.0,-29,-30,2.2

# (more compounds)
mol,RanGTP-Impb inh,Bfl-1 A1 inh,Beta apoptosis,B2AR ag,UCH37 inh,T cruzi inh,Calb FLC,LANA-H2B inh
O=C(CCn1c(=O)oc2ccccc21)N1CCc2ccccc21,1.2,-0.1,/,-7,4.6,0,-1,-3.5
Cc1ccc(C2NC(=S)NC3=C2C(=O)CC(C)(C)C3)cc1 (configuration not stated),-0.9,0.7,-1,0,2.5,-4,5,7.0
COc1ccc(C(=O)O)cc1S(=O)(=O)Nc1ccc(Oc2ccccc2)cc1,/,-0.1,-2,-9,2.3,/,/,-1.8
CC(C)Oc1ccc(S(=O)(=O)N2CCOCC2)cc1NC(=O)Cc1cccs1,0.7,-0.7,-2,1,-0.2,11,-2,2.9
CN1C(=O)C2CN(CCc3ccccc3)CNC2N(C)C1=O (configuration not stated),4.3,-0.1,/,-2,-1.0,-8,8,-5.6
Cc1noc(C)c1CN(C(=S)NC1CC2CCC1C2)c1ccccc1 (configuration not stated),-1.6,0.5,0,3,1.6,27,20,-3.0
CCOC(=O)COc1ccc(S(=O)(=O)NCc2ccco2)cc1,-0.4,0.4,-4,13,-0.1,-12,5,0.6
COc1ccccc1C(=O)COC(=O)/C(=C/c1ccccc1)NC(C)=O,-0.7,-0.4,/,4,-1.9,-20,31,9.2
O=C(CNC(=O)c1ccccc1F)OCc1nc2ccc(Cl)cc2n1CCO,/,1.2,0,0,0.7,/,/,-6.1
COc1ccc2[nH]cc(CCn3ccc(O)c(C/C=C/c4ccccc4)c3=O)c2c1,5.6,1.0,5,1,4.7,37,10,-0.4
COC(=O)c1ccc(C(=O)OCc2nc3cc4ccccc4cc3[nH]2)cc1,2.4,-0.5,-8,1,-3.0,-4,-13,-3.0
Cc1ccn2c(NC3CCCCC3)c(C(C)C)nc2c1,-3.7,-0.1,-7,-1,-8.3,-21,5,-0.3
COc1ccc(CNC(=O)Nc2ccc([N+](=O)[O-])cc2)cc1,0.8,?,-1,0,4.9,-1,-15,-2.9
COc1ccc(OCCCC(=O)Nc2cccc(C(C)=O)c2)cc1,-0.3,-0.1,-13,-3,0.0,-4,-20,2.8
O=C(CSc1nnc(-c2ccccc2O)o1)NC1CCCCC1,-1.7,1.4,-13,5,3.3,-7,-7,3.2
COc1ccccc1Oc1ncnc2sccc12,-0.7,0.4,-3,-2,0.4,-11,35,2.3

# Some of the entries so far, with each value named.
COc1ccc(C(=O)O)cc1S(=O)(=O)Nc1ccc(Oc2ccccc2)cc1
  RanGTP-Impb inh: /
  Bfl-1 A1 inh: -0.1
  Beta apoptosis: -2
  B2AR ag: -9
  UCH37 inh: 2.3
  T cruzi inh: /
  Calb FLC: /
  LANA-H2B inh: -1.8

CC(C)Oc1ccc(S(=O)(=O)N2CCOCC2)cc1NC(=O)Cc1cccs1
  RanGTP-Impb inh: 0.7
  Bfl-1 A1 inh: -0.7
  Beta apoptosis: -2
  B2AR ag: 1
  UCH37 inh: -0.2
  T cruzi inh: 11
  Calb FLC: -2
  LANA-H2B inh: 2.9

CN1C(=O)C2CN(CCc3ccccc3)CNC2N(C)C1=O (configuration not stated)
  RanGTP-Impb inh: 4.3
  Bfl-1 A1 inh: -0.1
  Beta apoptosis: /
  B2AR ag: -2
  UCH37 inh: -1.0
  T cruzi inh: -8
  Calb FLC: 8
  LANA-H2B inh: -5.6

Cc1noc(C)c1CN(C(=S)NC1CC2CCC1C2)c1ccccc1 (configuration not stated)
  RanGTP-Impb inh: -1.6
  Bfl-1 A1 inh: 0.5
  Beta apoptosis: 0
  B2AR ag: 3
  UCH37 inh: 1.6
  T cruzi inh: 27
  Calb FLC: 20
  LANA-H2B inh: -3.0

# Screens: PubChem BioAssay, several laboratories
